VDR inhibitor: vitamin D3 receptor (human) inhibition. P11473. hit rate 0.93% among 400,000. VDR-SRC2-3 peptide fluorescence polarization, 2 h. Potency, µM, for inactives: max response, negative = inhibition, usual class: inhibitors. AID 504847; active = well fitted inhibition curve with a large enough effect; inconclusive = small, poorly fitted or top-dose-only effect, or another doubt; inactive = no such curve, though single readings can be large or run the other way; also: series mostly up to about 120 µM
Target sequence (P11473 whole entry, looked up): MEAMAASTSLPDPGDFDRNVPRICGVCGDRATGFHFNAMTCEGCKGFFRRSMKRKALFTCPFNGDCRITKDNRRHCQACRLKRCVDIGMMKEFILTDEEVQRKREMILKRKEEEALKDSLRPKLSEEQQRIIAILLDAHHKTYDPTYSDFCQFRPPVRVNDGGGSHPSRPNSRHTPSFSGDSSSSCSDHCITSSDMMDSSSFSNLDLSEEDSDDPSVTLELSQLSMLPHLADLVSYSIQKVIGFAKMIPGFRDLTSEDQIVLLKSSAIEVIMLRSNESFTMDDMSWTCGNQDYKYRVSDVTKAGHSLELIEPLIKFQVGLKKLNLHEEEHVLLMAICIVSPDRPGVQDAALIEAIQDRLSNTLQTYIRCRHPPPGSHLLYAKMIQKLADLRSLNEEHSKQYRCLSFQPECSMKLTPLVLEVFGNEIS
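The screen uses fluorescence polarization to detect compounds that interfere with recruitment of the SRC2-3 coactivator peptide to VDR; plates are read after 2 h at room temperature.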
Numbers without * were called inactive; ? = inconclusive; & = joins results of further samples; [ ] = dose if it differs, or a comment. % is scaled to controls: 0 for no effect and ±100 for the full control effect; potency is read from the fitted curve at half-maximal effect.

VDR inhibitor | canonical_smiles
? | O=C(NCCCN1CCC(Cc2ccccc2)CC1)C1CC(=O)N(C2CCCCCC2)C1 (stereo not given)
0.5% | CC(/C=N/NC(=O)Cc1cccs1)=C\c1ccco1
4.8% | Clc1ccccc1CSc1cnnc2ccccc12
0.6%&5.5% | O=C(Nc1ccc(Cl)cc1)N1CCC(c2ccccc2)C1 (stereo not given)
8.4% | O=C(COc1ccccc1Cl)Nc1ccc2[nH]c(=O)[nH]c2c1
-11.5% | CN(CC1CCCN(CCc2ccc(Cl)cc2)C1)C(=O)c1ccc2nc[nH]c2c1 (stereo not given)
1.6% | Cn1c(CC(=O)Nc2ccc(Cl)c(Cl)c2)nnc1SCC(=O)Nc1nccs1
-17.4% | CCNc1nc(NCC)n2c(SCC(=O)Nc3ccccc3Cl)nnc2n1
7.8% | CCN(CC)C(=O)Nc1ccc(Br)cc1
-7.4% | O=C(O)c1cccc(NC(=S)NC(=O)c2ccc3ccccc3c2)c1
-3.1% | COc1cc(C)ccc1OCCCCOc1ccccc1C(C)=O
12.7% | COc1ccc2nc3c(cc2c1)c(NC(=O)c1cccs1)nn3CC(C)C
6.5% | COc1cc(OC)c(C2Nc3c(C)cccc3-c3cc(C)nn32)cc1OC (stereo not given)
? | COc1ccc(/C=C2\CCc3ccccc3C2=O)cc1OC
7.4% | CN(c1ccc(C(=O)NC2CC2)cc1)S(=O)(=O)c1ccccc1
3.9% | COc1ccc(NC(=O)c2cccc(S(=O)(=O)NCc3ccco3)c2)c(OC)c1
0.7% | NC(=O)COc1ccc(/C=N\NC(=O)c2ccc(-c3ccccc3)cc2)cc1
-14.3% | CCN(CCNC(=O)CCCn1nc(C)n2c(cc3sccc32)c1=O)c1ccccc1
17.8% | Cc1nn(C)c(C)c1/C=N/O
0.5% | CC(C)NC(=O)N1CCC2(CC1)CCN(C(=O)c1cccc(F)c1)CC2
-18.7% | COc1cccc(Cn2c(=O)cnc3cnc(OC)nc32)c1
4.0% | Cc1ccc(C(=O)NC(=S)Nc2cc(-c3nc4ccccc4s3)ccc2C)cc1
-20.0% | C=C1CC2C(=O)N(Cc3cc(OC)ccc3OC)C(C(=O)OCC)C1N2C (stereo not given)
1.9% | COc1ccc(C(=O)NCc2ccc3c(c2)OCO3)cc1S(=O)(=O)N(C)Cc1ccccc1

Molecules shown so far that have an NH in an aromatic ring:
VDR inhibitor | canonical_smiles
8.4% | O=C(COc1ccccc1Cl)Nc1ccc2[nH]c(=O)[nH]c2c1
-11.5% | CN(CC1CCCN(CCc2ccc(Cl)cc2)C1)C(=O)c1ccc2nc[nH]c2c1 (stereo not given)

Further compounds:
VDR inhibitor | canonical_smiles
1.6% | COCCCn1c(SCC(=O)Nc2ccccc2)nnc1-c1ccncc1
3.1% | CN1CCN(c2ncc3nc(CCc4ccccc4)c(=O)n(CCc4ccccc4)c3n2)CC1
1.3% | CC(C)=CCCC(C)CN1CCC(n2nccc2NC(=O)c2cccnc2)CC1 (stereo not given)
-3.3% | Cc1cccc(C(C)C)c1NC(=O)C(NS(=O)(=O)c1cccc2nsnc12)c1ccccc1 (stereo not given)
-9.9% | Oc1ccc(C[C@H]2CNCCN2CCCCC2CCCCC2)cc1
2.4% | CCCS(=O)(=O)c1nc(S(=O)(=O)c2ccc(C)cc2)c(NC(C)c2ccccc2)s1 (stereo not given)
-11.5% | N/C(=N\OC(=O)CC1CCCCC1)c1ccncc1
-29.0% | O/N=C/c1cc2ccccc2n1Cc1ccccc1F
11.7% | Cc1ccccc1CNC(=O)c1ccccc1C(=O)O
3.7% | CCC(O)(CC)C(=O)NN(C(=O)Nc1csc2c1CCCC2)c1ccccc1
9.4% | COc1ccc2c(c1)CC(NC(=O)Nc1ccc(NC(C)=O)cc1)CO2 (stereo not given)
-12.9% | Cc1cccc(Nc2c3c(nc4ncnn24)CCC3)c1
-4.4% | NCC1O[C@@H](OC2C(N)C[C@H](N)[C@@H](O[C@H]3OC(CO)C(O)C(N)C3O)C2O)C(O)C(O)C1O (stereo not given in full)
6.1% | Cn1cccc1Cc1nnc(SCC(=O)Nc2ccccc2)n1-c1ccc(F)cc1
3.9% | Cc1cc(/C=C2\SC(=O)N(C)C2=O)c(C)n1-c1cccc(C(=O)O)c1
4.1% | CCSc1ncc(Cl)c(C(=O)Nc2c(C(=O)c3ccccc3)oc3ccccc23)n1

In the list so far, three have a COOH group:
VDR inhibitor | canonical_smiles
-7.4% | O=C(O)c1cccc(NC(=S)NC(=O)c2ccc3ccccc3c2)c1
11.7% | Cc1ccccc1CNC(=O)c1ccccc1C(=O)O
3.9% | Cc1cc(/C=C2\SC(=O)N(C)C2=O)c(C)n1-c1cccc(C(=O)O)c1

(cont.)
VDR inhibitor | canonical_smiles
3.0% | Cc1cccc(OCC(=O)N2CCN(C(=O)CCC3CCCC3)CC2)c1
9.8% | N#Cc1ccc(C(=O)Nc2nc(SCc3ccc(Cl)cc3)n[nH]2)cc1
14.4% | CN(C)CCNc1nc(-c2ccccc2)c2c(c1C#N)CC(C)(C)OC2
-1.3% | COc1ccccc1-c1cnn2c(NC3CCCC3)cc(C)nc12
-14.5% | CCn1c(=O)cc(SCC(=O)NCc2cccc(Cl)c2)c2ccccc21
14.0% | CCC1(c2ccccc2)NC(=O)N(CC(=O)NNC(=O)COc2ccc(Cl)cc2C)C1=O (stereo not given)
-9.1% | COC(=O)C1C(=O)C2=C(CC1C)NC(C)=C(C(=O)OC1CCCC1)C2c1ccc(N(C)C)cc1 (stereo not given)
3.3% | C#CCOCCOCCOCCNc1nc(N2CCN(C(=O)[C@H](CCCCN)n3cc(CN)nn3)CC2)nc(N2CCN(C(=O)[C@H](CCC(=O)O)n3cc(CN)nn3)CC2)n1
-11.7% | Cc1noc(C)c1S(=O)(=O)Nc1ccc(C(=O)NCc2ccccc2)cc1
-0.1% | Cc1ccccc1NC(=O)CCn1cnc2onc(-c3ccc(F)cc3)c2c1=O
-10.5% | Cc1ccc(-c2nn(C)c(=O)c3ccccc23)cc1S(=O)(=O)NCCO
-4.7% | COc1cccc(-c2cc(C(F)(F)F)n3nc(-c4ccc(C)cc4)cc3n2)c1
-16.8% | CC(=O)NS(=O)(=O)c1cccnc1Nc1ccc(Cl)c(Cl)c1
-5.2% | CCCCNCCOCCOc1ccc(F)cc1
-0.3% | O=C(NCC(=O)N1CCCCCCC1)c1cccc([N+](=O)[O-])c1
9.1% | Cc1cc(C(F)F)n2nc(C(=O)NCc3ccccc3F)nc2n1
0.2% | Cc1ccc(N(CC(=O)NCc2ccco2)C(=O)CCC(=O)Nc2nccs2)cc1
-3.5% | N#Cc1nc(-c2ccc(OCc3ccccc3Cl)cc2)oc1N1CCCCCC1
8.0% | CC(=O)Cn1c(CN2CC(C)CC(C)C2)nc2c1c(=O)n(C)c(=O)n2C (stereo not given)
11.6% | COc1cccc(Nc2cc(C)nc3nc(-c4ccc(Cl)cc4)nn23)c1
4.3% | Cc1ccc(SCC(=O)OC(C)C(=O)Nc2ccc(S(N)(=O)=O)cc2)cc1C (stereo not given)
7.5% | COC(=O)C1CCN(C(=O)c2cc(-c3ccc(Cl)s3)nc3ccccc23)CC1
6.3% | NS(=O)(=O)c1ccc(CCNC(=O)Cc2ccc(S(=O)(=O)N3CCOCC3)s2)cc1
-3.5% | CC(C)(C)NC(=O)NC(=O)CN1CCN(c2ccccc2)CC1

The final three records of the part before lead into the next.
VDR inhibitor | canonical_smiles
7.5% | COC(=O)C1CCN(C(=O)c2cc(-c3ccc(Cl)s3)nc3ccccc23)CC1
6.3% | NS(=O)(=O)c1ccc(CCNC(=O)Cc2ccc(S(=O)(=O)N3CCOCC3)s2)cc1
-3.5% | CC(C)(C)NC(=O)NC(=O)CN1CCN(c2ccccc2)CC1
-4.9% | CCOc1ccc(NS(=O)(=O)c2ccc3[nH]cc(C(=O)NC4CCCC4)c(=O)c3c2)cc1
-15.4% | CCOC(=O)c1ccc(NC(=S)NN2CCOCC2)cc1
-7.1% | O=C(COC(=O)CN1C(=O)C2CCCCC2C1=O)NC1CCS(=O)(=O)C1 (stereo not given)
-5.4% | COc1ccccc1C(=O)COC(=O)CNS(=O)(=O)c1ccc(NC(C)=O)cc1
0.4% | CCCCn1c(SCC(=O)c2ccccc2)nc2ccsc2c1=O
-2.5% | Cn1/c(=N/N=C/c2ccc(Cl)c([N+](=O)[O-])c2)sc2ccccc21
44.6%[activator] | Cc1cc(N2CC(C(=O)O)CC2=O)ccc1Br (stereo not given)
-13.2% | Brc1ccc(-c2noc(COc3ccc4ccccc4c3)n2)o1
-5.5% | Fc1ccc(C(CNC(=S)NC2CCCCC2)N2CCOCC2)cc1 (stereo not given)
-20.6% | O=C(O)/C=C/C(=O)Nc1ccc2c(c1)C(=O)c1ccccc1C2=O
5.5% | COc1nc(-c2ccccc2)cc(-c2ccc(OC)c(OC)c2)n1
8.3% | CC1(C)C(c2ccc(Cl)cc2)=[N+]([O-])C2(CCCC/C2=N\O)N1O (stereo not given)
14.9% | Cc1cccc(-c2nc(SCc3cc(=O)c4c(C)cc(C)cc4[nH]3)n[nH]2)c1
3.3% | COc1ccc(CC(=O)Nc2ccc(S(=O)(=O)Nc3cc(C)on3)cc2)cc1
-20.9% | CC(C(=O)Nc1cc([N+](=O)[O-])ccc1Cl)N1CCN(c2ccc(O)cc2)CC1 (stereo not given)
-5.7% | Cc1cccc(-c2noc(-c3ccccc3C(=O)NCc3ccco3)n2)c1
-7.4% | Cc1nnc(SCC(=O)NC2CCCCC2)n1C1CCCCC1
-7.3% | COc1cc(C(=O)O)ccc1OC(C)=O
-22.4% | CCN(CC(=O)Nc1ccc(NC(C)=O)cc1)C(=O)C1CC(=O)N(Cc2ccc(C)cc2)C1 (stereo not given)
10.0% | Cc1ccc(CSc2nnc(-c3ccc4c(c3)OCO4)o2)cc1
11.8% | Cn1c(=O)cc(Nc2ccc(Cl)cc2)[nH]c1=O
15.0% | COc1ccc(OC)c(NC(=O)CCCNC(=O)c2ccc(Cl)cc2)c1
-10.5% | O=C(CCNS(=O)(=O)c1ccccc1C(F)(F)F)NCCCSc1ccccc1
-1.6% | Cc1ccc(NC(=O)CCCCCC2NC(=O)NC2C)cc1 (stereo not given)
-6.5% | Cc1cc(N2CCN(C)CC2)nc2ccc(NC(=S)N3CCN(c4ccc(Cl)cc4)CC3)cc12
-12.6% | Cc1noc(C)c1COc1ccccc1C(=O)NCCOc1ccccc1F
2.3% | S=C(Nc1cccnc1)N1CCN(c2ccccc2Cl)CC1
1.2% | Cc1nn(CC(=O)Nc2ccccn2)c(C)c1[N+](=O)[O-]
-8.4% | Cc1cccc(NNC(=O)C2CCC2)c1
-11.5% | CC1CN(C(=O)N2CCCCC2)CCN1C(=O)N1CCCCC1 (stereo not given)
-18.4% | CC(C)(C)N/N=C/c1cc(Cl)cc([N+](=O)[O-])c1O
15.6% | N/C(=N\OC(=O)Cc1ccccc1[N+](=O)[O-])c1cccnc1
3.0% | O=C(COC(=O)c1ccc([N+](=O)[O-])o1)Nc1ccc(F)cc1
-8.8% | COc1ccccc1N1CCN(C(=O)/C=C/c2ccccc2)CC1
-8.0% | CCN(CC)c1nc2n(c(=O)n1)CCN2CC
10.0% | Cc1ccc(C(=O)Nc2ccc(S(=O)(=O)N3CCc4ccccc4C3)cc2)o1
-18.0% | COc1ccc(NC(=O)CNC(=O)Cc2cccc3ccccc23)c(OC)c1
-19.8% | CCN(C(=O)CSc1nnnn1-c1ccc(OC)cc1)C1CCS(=O)(=O)C1 (stereo not given)
? | CCOC(=O)Cn1nc(C)n(-c2ccc(Br)cc2)c1=O
7.7% | Cc1cccc(NC(=O)c2cc(-c3ccc4c(c3)OCCO4)on2)c1
-9.6% | COc1ccc(C2/C(=C(/O)c3ccc4c(c3)CC(C)O4)C(=O)C(=O)N2Cc2ccncc2)cc1 (stereo not given)
-9.7% | Cc1ccc(CCNC(=O)C23CN(Cc4ccccc4)CC2C(c2cccc([N+](=O)[O-])c2)=NO3)cc1 (stereo not given)
5.4% | COc1ccc(N2CCN(C(CNC(=O)C(=O)NCc3ccc(C)cc3)c3cccnc3)CC2)cc1 (stereo not given)
-10.2% | CCN(CC(=O)Nc1ccccc1C(F)(F)F)C(=O)C1CSC2(C)CCC(=O)N12 (stereo not given)
-12.3% | O=C(Nc1ncn[nH]1)c1ccc(Cl)cc1Cl
8.3% | CCOc1ccc2nc(NC(=O)c3ccoc3C)sc2c1
-1.0% | Cc1ccc(CNCC(=O)Nc2ccc(N3CCOCC3)cc2)cc1
-0.4% | O=C(CSCc1nc2ccccc2[nH]1)Nc1ccc2ccccc2c1
? | CC(C)(C)c1ccc(S(=O)(=O)/N=C2\C=C(NS(=O)(=O)c3ccccc3)C(=O)c3ccccc32)cc1
? | N#CCSc1nc2[nH]ncc2c(=O)n1-c1ccccc1Br
23.3% | O=C(C(=O)N1CCN(c2ccc(F)cc2)CC1)c1cn(CC(=O)N2CCOCC2)c2ccccc12
-13.3% | CCc1cccc(CC)c1NC(=S)NCc1ccc2[nH]c(C)cc2c1
-12.8% | O=C(/C=C/c1ccccc1Cl)c1ccc[nH]1
-9.1% | N=c1c(C(=O)NCc2ccc3c(c2)OCO3)cc2c(=O)n3ccccc3nc2n1Cc1cccnc1
-0.4% | CC1=CC=CC2=NC(=O)CC(C)(C(=O)O)N12 (stereo not given)
-11.2% | CCCn1cnc2c(oc3ccccc32)c1=O

(cont.)
VDR inhibitor | canonical_smiles
-5.8% | COc1ccc(C2=NS(=O)(=O)N(C)C(C(=O)Nc3ccc(OC)c(OC)c3)=C2)cc1
-2.8% | O=C(OCC(=O)N1CCN(C(=O)c2ccco2)CC1)c1cn(-c2ccccc2)nc1-c1ccccc1
0.4% | CN(C)C(CNc1ccc([N+](=O)[O-])cc1C#N)c1ccccc1 (stereo not given)
-10.5% | Cc1ccc2c(c1)N(CC(=O)NCCC1=CCCCC1)C(=O)c1cccnc1O2
-8.4% | COCCCNC(=O)c1sc2nc(C)c(C(=O)Nc3ccc(C)cc3C)c(-c3ccc(Cl)cc3)c2c1N

These rows are one share of the data. The share of hits here may be higher or lower than overall.
